# HNF4A DNA FP = change in binding of human HNF4 alpha to DNA | HNF4a-FITC DNA binding, fluorescence polarization, 1 h | activity change, % at 10 µM | AID 1224865 | P41235 | actives 0.3% (n = 360,000); in the data active = activity change above about 30%, passing the limit was not always enough;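 note: controls were the assay level and a saturating level of protein; the project sought stronger binding though the title names inhibitors; some compounds called inactive have numbers as strong as hits; positive values seem to mean higher polarization but the record does not say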
# Target sequence (P41235 whole entry, looked up): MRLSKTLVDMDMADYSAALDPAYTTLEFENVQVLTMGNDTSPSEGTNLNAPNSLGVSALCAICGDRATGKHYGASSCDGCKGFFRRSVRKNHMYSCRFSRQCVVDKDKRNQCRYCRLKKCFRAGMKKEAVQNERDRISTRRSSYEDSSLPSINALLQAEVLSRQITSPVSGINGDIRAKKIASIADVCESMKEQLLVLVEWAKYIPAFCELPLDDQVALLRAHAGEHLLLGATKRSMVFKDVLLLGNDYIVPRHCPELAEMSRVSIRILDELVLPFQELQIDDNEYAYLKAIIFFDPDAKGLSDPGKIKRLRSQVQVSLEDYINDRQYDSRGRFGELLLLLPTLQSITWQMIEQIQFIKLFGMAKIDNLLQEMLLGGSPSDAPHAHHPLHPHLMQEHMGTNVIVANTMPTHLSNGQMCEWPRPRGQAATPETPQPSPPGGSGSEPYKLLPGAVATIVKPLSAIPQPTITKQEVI
# * = called active by the depositor; & = joins results of further samples.
SMILES,HNF4A DNA FP
CCCCCCCCN1C(=O)[C@H](CC(=O)NCc2cccc3ccccc23)C[C@@]2(C(=O)OCC)CCCC=C12,-0.8
COc1cc(CCN(C(=O)c2cc3ccccc3[nH]2)C(C)c2nc3ccccc3[nH]2)cc(OC)c1 (stereo unspecified),-0.1
CCc1ccc2c(c1)NC(=O)C2(C)Cc1ccc(OC(F)(F)F)cc1 (stereo unspecified),-0.8
CCC(c1nnnn1-c1ccc2c(c1)OCCO2)N1CCN(c2ncccc2C(F)(F)F)CC1 (stereo unspecified),0.1&0.4
CCc1nc2ccc(C(=O)Nc3cccc(OCC(=O)N(C)C)c3)cn2c1N(CC)CCOC,-0.1
CCCCC[C@H](C)N1C[C@H](COCc2ccccc2)Oc2cc(N3CC[C@@H](O)C3)ccc2S1(=O)=O,6.3
CCCC(=O)N1CCC1(C)C(=O)Nc1ccccc1C(C)(C)C (stereo unspecified),-1.4
CCC(C(=O)NC1CCCC1)n1c(-c2ccncc2)nc2ccccc21 (stereo unspecified),0.9
CCCC(=O)N1CCC1(C)C(=O)Nc1cc(OC)ccc1OC (stereo unspecified),-0.6
COC(=O)/C=C1\OCc2cc(OCc3ccccc3)ccc21,-1.0
COC(=O)[C@@]1(Cc2ccc(F)cc2)[C@H]2c3cc(C(=O)N4CCCC4)n(Cc4ccc(S(C)(=O)=O)cc4)c3C[C@H]2CN1C(=O)c1ccccc1,8.4
CCOC(=O)C1=C[C@@H](C(C)(C)C)N(S(=O)(=O)c2ccc(C)cc2)[C@H]1c1ccccc1Cl,-0.9
CCC(=O)N1CCCC(C)(C(=O)NS(=O)(=O)c2cccs2)C1 (stereo unspecified),0.1
CCC1NC(=O)c2cccnc2-n2c1nc1ccc(OC)cc1c2=O (stereo unspecified),3.2
Cc1cccnc1C(NC(=O)C1CCN(CCOc2ccc(Cl)cc2Cl)CC1)c1ccc(Cl)cc1 (stereo unspecified),2.6
Cc1ccc(S(=O)(=O)N(C)C[C@H]2Oc3ncc(-c4ccccc4)cc3C(=O)N([C@@H](C)CO)C[C@@H]2C)cc1,0.1
O=S1(=O)N[C@H](Cc2ccccc2)COc2cccc(N3CCC[C@H]3CO)c21,-0.2
CC1(Cc2ccc3c(c2)OCO3)C(=O)Nc2ccc(-c3cccc(C(F)(F)F)c3)cc21 (stereo unspecified),2.8
CC(C)(C)NC(=O)C(c1cc2ccccc2o1)n1c(=O)c(-c2ccccc2)nc2ccccc21 (stereo unspecified),1.4
CCCCCCc1nc2nc(Cl)c(Cl)nc2[nH]1,-8.2
COc1ccc(C(=O)NCCNc2nc3cc(C)cc(C)c3cc2C#N)cc1,-5.1
CCCS(=O)(=O)NC(=O)C1(C)CCN(C(=O)c2ccccc2OC)C1 (stereo unspecified),-3.4
CCOC(=O)C(=O)N(C)c1c(CC)nc2c(OCc3ccc(OC)cc3)cccn12,-1.4
COc1cc(CN2C[C@@H](CO)O[C@@H](n3cnc4c(NC5CCCC5)ncnc43)C2)cc(OC)c1OC,-1.5
COc1ccc(C(O)c2ncc(-c3ccccc3C)[nH]2)cc1F (stereo unspecified),-5.8
CC(C)NC(=O)C1(C)CN(S(C)(=O)=O)CC(=O)N1C1CCCCCC1 (stereo unspecified),-3.0
O=C1c2ccccc2C(c2nnnn2Cc2ccccc2)N1CCc1c[nH]c2ccccc12 (stereo unspecified),5.1
CC1=C(C(=O)N(C(C)C)C(C)C)CC(CC(=O)NCCCN(C)C)C(=O)N1CCCN1CCCC1=O (stereo unspecified),-2.5
CCOC(=O)[C@]12CCCC=C1N(CCC1=CCCCC1)C(=O)[C@H](CC(=O)NCCCOC)C2,2.3
CCOC(=O)[C@]12CCCC=C1N(CCC1=CCCCC1)C(=O)[C@H](CC(=O)NCc1ccc(OC)c(OC)c1)C2,5.0
CCOC(=O)[C@]12CCC=C1N(Cc1cccc3ccccc13)C(=O)[C@H](CC(=O)N1CCOCC1)C2,-0.2
COC(=O)c1ccc2cc(F)cc(C)c2n1,-2.5
O=C(NCc1ccccc1)C(c1ccc(-c2ccccc2)cc1)N1CCN(c2ccccc2F)CC1 (stereo unspecified),-0.4
COc1ccc(Cc2c(C(C)(C)C)nc3ccc(Br)cn23)c(C)c1,2.9
CC1(C(=O)NCc2ccc3c(c2)OCO3)CCN1Cc1csc2ccccc12 (stereo unspecified),-0.1
COc1ccc(NC(=O)C2(C)Cc3c(-c4cccc(C(F)(F)F)c4)ccnc3O2)cn1 (stereo unspecified),-5.0
CC(C)(C)c1cc2nc(NCCc3ccc(S(N)(=O)=O)cc3)ccn2n1,3.6
CC(C)C[C@@H]1COc2cccc(N3CCN(Cc4ccccc4F)CC3)c2S(=O)(=O)N1,-2.4
CS(=O)(=O)Nc1cccc(NC(=O)C2Cc3c(-c4ccco4)ccnc3O2)c1 (stereo unspecified),1.6
CCc1ccc([C@H]2[C@@H]3C(=O)C[C@@H]4C(=O)NC(=O)[C@@H]4[C@@H]3CN2S(=O)(=O)c2ccc(C)cc2)cc1,0.8
O=C(Nc1cccc(Cl)c1)Nc1nnc([C@H]2C[C@H](O)[C@@H](CO)O2)s1,-1.6
CC(=O)Nc1ccccc1NC(=O)c1ccc2c(c1)OCO2,3.6
CCNC(=O)C1(C)CCN1CCC(=O)c1ccc(Br)cc1 (stereo unspecified),-0.3
O=C1O[C@@H](c2ccccc2)C[C@@H](O)C(=O)CCCc2ccccc21,6.8
COc1ccc(NC(=O)c2cc(-c3cc(F)ccc3OC(C)C)n[nH]2)c(C)c1,2.1
CCCCCCN1CCN(C2CN(CCc3ccccc3)S(=O)(=O)C2)CC1 (stereo unspecified),4.5
C[C@H](CO)N1C[C@H](C)[C@@H](CN(C)C)OCc2cnnn2CCCC1=O,1.0
COc1ccc(C(=O)N2CCCCC2c2cc(C(=O)NCc3ccc(F)cc3)no2)cc1 (stereo unspecified),-0.2
Cc1cccc(-c2cnc(C(O)c3ccc(-c4ccccc4)cc3)[nH]2)c1 (stereo unspecified),-0.8
NC(Cc1ccc(Cl)cc1)c1csc(NC(=O)Nc2ccccc2)n1 (stereo unspecified),0.5
CC(=O)N1CCOCC1c1cc(C(=O)Nc2ccccc2)no1 (stereo unspecified),-0.4
COCCNC(=O)C1(C)CCCN(CCSc2ccccc2)C1 (stereo unspecified),3.8
CCOC1=C2CN(S(=O)(=O)c3ccc(C)cc3)[C@@H](c3cccc4ccccc34)C[C@H]2[C@H]2C(=O)N(c3ccccc3)C(=O)[C@H]2C1,4.2
CCCS(=O)(=O)NC(=O)C1(C)CCN(C(=O)c2ccccc2OC(F)(F)F)C1 (stereo unspecified),-2.0
Cc1ccc(-c2csc(C(C)(O)c3ccc(F)c(F)c3)n2)cc1C (stereo unspecified),-1.0
Nc1nc2ccc(Cl)cc2cc1C(=O)NCCc1ccc(O)cc1,2.0
COc1ccc2nc3n(c(=O)c2c1)-c1ncccc1C(=O)NC3Cc1ccccc1 (stereo unspecified),-2.6
Cc1ccccc1S(=O)Cc1ccc(C(=O)N2CCN(C3CCCCC3)CC2)o1 (stereo unspecified),-1.0
CC(C)C[C@@H](CN1CCCC1CN1C(=S)NC[C@@H]1Cc1ccccc1)N1C[C@H](Cc2ccccc2)N(CCc2ccccc2)C1=S (stereo partly specified),3.1
COc1ccc(Cc2c(-c3ccc(F)cc3)nc3ccc(Cl)cn23)c(C)c1,16

# Remaining list, next part:
SMILES,HNF4A DNA FP
CC(C)(C)NC(=O)C(c1cccc2ccccc12)n1c(=O)c(-c2cc3ccccc3[nH]2)nc2ccccc21 (stereo unspecified),5.8
COc1ccccc1-c1cc(NC(C)=O)c2ncc(-c3ccccc3)n2c1,2.5
Cc1cc(F)ccc1-c1cc(C(=O)N2CCN(c3ccncc3)CC2)[nH]n1,-2.2
CC1(c2nnnn2-c2ccc3c(c2)OCCO3)CCC(=O)N1CCCn1ccnc1 (stereo unspecified),-0.7
CCc1ccc([C@@H]2CC(=O)[C@@H]3CN(S(=O)(=O)c4ccc(C)cc4)[C@H](c4ccc(Cl)cc4)C[C@@H]3N2S(=O)(=O)c2ccc(C)cc2)cc1,5.7
C=CCNc1ncnc2c1ncn2[C@H]1CN(Cc2ccco2)C[C@@H](CO)O1,-3.0
Cc1ccc(-c2nc3cc(C)c(Br)c(C)n3c2CC2CCCCC2)cc1,0.3
Cc1ccc(S(=O)(=O)N2CCC(=O)N([C@H](COCc3ccc(Cl)cc3)C(C)C)CC2)cc1,-0.6
CCc1ccc([C@@H]2C[C@H]3[C@@H](CN2S(=O)(=O)c2ccc(C)cc2)C(=O)C[C@@H](c2cccc(Cl)c2)N3S(=O)(=O)c2ccc(C)cc2)cc1,-0.5
COC(=O)C[C@@H]1C=C[C@@H](NC(C)=O)[C@@H](CO)O1,3.8
COc1ccc(CCN2C(=O)c3ccccc3C2c2nnnn2-c2ccc3c(c2)OCCO3)cc1OC (stereo unspecified),-1.7
CN1CCN(C(=O)C[C@@H]2C=C[C@H](NS(=O)(=O)c3cccc(F)c3)[C@@H](CO)O2)CC1,3.6
CC(=O)c1cccc(NC(=O)C2Cc3c(-c4ccc5c(c4)OCO5)ccnc3O2)c1 (stereo unspecified),2.6
Cc1ccc2nc(C3CCCCC3)c(Cc3cccc(F)c3)n2c1,3.2
COCCNc1ncnc2c1ncn2[C@H]1CN(Cc2ccc3c(c2)OCO3)C[C@@H](CO)O1,-0.3
Cc1ccc(-c2nc3c(Cl)cc(C(F)(F)F)cn3c2Cc2ccccc2C(F)(F)F)cc1,5.0
Cc1cccc(C)c1-n1nnnc1C(c1cc2ccccc2o1)N1CCN(C/C=C/c2ccccc2)CC1 (stereo unspecified),4.9
Cc1cc(C)c(S(=O)(=O)N2C[C@H]3CON(C)[C@H]3C[C@H]2c2ccc(N3CCCCC3)cc2)c(C)c1,28
Cc1cccc(-c2cccc3nccn23)c1,3.2
COc1ccc(C)cc1NC(=O)NC1CC(=O)N(c2ccc3c(c2)OCCO3)C1 (stereo unspecified),1.3
CC(=O)c1ccc(OC2(C)CCN(Cc3cc4ccccc4[nH]3)C2)cc1 (stereo unspecified),2.3
COc1c(C)cc(C(O)c2ncc(-c3ccccc3C(F)(F)F)[nH]2)cc1C (stereo unspecified),0.1
CCCNC(=O)c1cc(C2CCCCN2C(=O)c2ccc(OC)cc2)on1 (stereo unspecified),2.4
O=C(NCC1CCCCC1)c1ccc2nc([C@H]3C[C@H](O)[C@@H](CO)O3)[nH]c2c1,3.9
CCc1nc2c(OCc3ccc(C(=O)N(C)C)cc3)cccn2c1N(C=O)Cc1ccccc1,-1.8
CCCc1nc2ccc(C)cn2c1Cc1ccc(C)cc1,4.2
Cc1cc(=O)n2nc(N3CCCC(C(=O)Nc4cccc(C)c4C)C3)sc2n1 (stereo unspecified),3.3
CCOC(=O)C1=CCC2C(=O)N(Cc3ccccc3)C(=O)C12 (stereo unspecified),2.0
CC(=O)c1cccc(-c2ccnc3c2CC(C(=O)Nc2ccccc2)O3)c1 (stereo unspecified),-1.7
Cn1c(=O)c2cc(NC(=O)Nc3cccnc3)ccc2n1Cc1cccc(C(F)(F)F)c1,2.4
CCCCCCn1cc(CN2CC(N3CCN(C)CC3)CS2(=O)=O)nn1 (stereo unspecified),1.6
COc1ccc(NC(=O)c2ccccc2SCc2ccccc2)cc1,-1.3
Cc1cccc(-c2cnc(C(O)c3cc(C)cc(C)c3)[nH]2)c1 (stereo unspecified),4.4
CCCC(=O)N1CCCC1(C)C(=O)Nc1cc(OC)ccc1OC (stereo unspecified),0.5
CC1(C(=O)Nc2ccc(Cl)c(C(F)(F)F)c2)Cc2c(-c3ccc4c(c3)OCO4)ccnc2O1 (stereo unspecified),-1.3
CNC(=O)C[C@@H]1C(=O)N(c2ccc(Br)cc2)CC1(C)C,-3.1
O=C(NCC1CC1)C1Cc2c(-c3cccc(F)c3)ccnc2O1 (stereo unspecified),-1.4
CCOC(=O)C1(C)CCN1C(=O)c1ccc(C(=O)OC)cc1 (stereo unspecified),-0.2
COC(=O)[C@@]1(Cc2ccc(F)cc2)[C@H]2c3cc(C(=O)N(C)C)n(Cc4cc(F)cc5c4OCOC5)c3C[C@H]2CN1C(=O)c1ccccc1,7.4
O=C(NCc1ccccc1)C1C(=O)Nc2ccccc2C(=O)N1C1CCCC1 (stereo unspecified),-0.6
Cc1ccc(Cn2c(C)c(C(=O)NCc3ccc(Cl)c(Cl)c3)sc2=O)cc1,2.0
COc1ccc(CC(N)c2csc(NC(=O)C(c3ccccc3)c3ccccc3)n2)cc1 (stereo unspecified),6.4

# Another view of some results above.
HNF4A DNA FP	SMILES
1.6	CCCCCCn1cc(CN2CC(N3CCN(C)CC3)CS2(=O)=O)nn1 (stereo unspecified)
-1.3	COc1ccc(NC(=O)c2ccccc2SCc2ccccc2)cc1
4.4	Cc1cccc(-c2cnc(C(O)c3cc(C)cc(C)c3)[nH]2)c1 (stereo unspecified)
0.5	CCCC(=O)N1CCCC1(C)C(=O)Nc1cc(OC)ccc1OC (stereo unspecified)
-1.3	CC1(C(=O)Nc2ccc(Cl)c(C(F)(F)F)c2)Cc2c(-c3ccc4c(c3)OCO4)ccnc2O1 (stereo unspecified)
-3.1	CNC(=O)C[C@@H]1C(=O)N(c2ccc(Br)cc2)CC1(C)C
-1.4	O=C(NCC1CC1)C1Cc2c(-c3cccc(F)c3)ccnc2O1 (stereo unspecified)
-0.2	CCOC(=O)C1(C)CCN1C(=O)c1ccc(C(=O)OC)cc1 (stereo unspecified)
7.4	COC(=O)[C@@]1(Cc2ccc(F)cc2)[C@H]2c3cc(C(=O)N(C)C)n(Cc4cc(F)cc5c4OCOC5)c3C[C@H]2CN1C(=O)c1ccccc1
-0.6	O=C(NCc1ccccc1)C1C(=O)Nc2ccccc2C(=O)N1C1CCCC1 (stereo unspecified)
2.0	Cc1ccc(Cn2c(C)c(C(=O)NCc3ccc(Cl)c(Cl)c3)sc2=O)cc1
6.4	COc1ccc(CC(N)c2csc(NC(=O)C(c3ccccc3)c3ccccc3)n2)cc1 (stereo unspecified)

# Screening data (PubChem)

# Not all compounds are listed; rates above refer to the full screens.
